Source: PubChem BioAssay (Broad Institute)
Vaccinia stage – blocks a specific stage of Vaccinia orthopoxvirus infection; Vaccinia-infected cells, mCherry/Venus stage reporter fluorescence; stronger effect = lower value; some inactives read as strong as hits; activity change (mCherry), % (concentration not given with the values); 0.01% of 89,000 active; AID 1053133;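 active = mCherry past -33% and 40 or more points under the early reporter, replicates agreeing; inconclusive = past -33% without that gap or agreement; tested in A549 cells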;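 also: scaled between vehicle wells and reference inhibitor wells; 23 nL library stock went into each well; one replicate is shown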
Vaccinia stage Venus – also measured in Vaccinia stage; calls as there; activity change (Venus), %; measured here: Venus reporter, other viral stage;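 negative = less Venus signal; first of two replicates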
* marks the source's active call; other numbers are inactive results; ? = inconclusive; / = no result given. The list is partial (hit frequency here may not be typical).

SMILES	Vaccinia stage	Vaccinia stage Venus
C[C@@H](NC(=O)C[C@@H]1C[C@@H]2c3cc(NS(=O)(=O)c4ccc(F)cc4)ccc3O[C@@H]2[C@H](CO)O1)c1ccccc1	-11.4	-7.0
O=C(NC1CCCC1)[C@H]1[C@H](CO)[C@H]2Cn3c(ccc(-c4ccncc4)c3=O)[C@H]2N1CC1CC1	14.4	6.4
C[C@H](CO)N1C[C@H](C)[C@@H](CN(C)S(=O)(=O)c2cccc(F)c2)Oc2ncc(C#CC3CCCCC3)cc2C1=O	?	/
C[C@H](CO)N1C[C@H](C)[C@@H](CN(C)C(=O)Nc2ccc3c(c2)OCO3)Oc2ccc(NS(=O)(=O)c3ccc(F)cc3)cc2C1=O	10.3	6.6
Cc1noc(C)c1S(=O)(=O)Nc1cccc2c1O[C@@H](CN(C)CC1CCCCC1)[C@@H](C)CN([C@@H](C)CO)C2=O	1.2	-4.1
C[C@@H]1CN([C@@H](C)CO)C(=O)CCCn2nncc2CO[C@@H]1CN(C)Cc1ccccc1C(=O)O	2.4	2.4
C[C@H](CO)N1C[C@H](C)[C@H](CN(C)CC2CC2)Oc2c(NS(=O)(=O)c3cn(C)cn3)cccc2C1=O	25.3	13.4
COc1ccc(C#Cc2cnc3c(c2)C(=O)N([C@@H](C)CO)C[C@H](C)[C@H](CN(C)C(C)=O)O3)cc1	9.0	4.0
CO[C@@H]1CN(C)C(=O)c2cc(NC(C)=O)ccc2OC[C@@H](C)N(C(=O)CN(C)C)C[C@@H]1C	6.3	4.1
COc1ccc2c3c(n(C)c2c1)[C@H](CO)N(C(=O)CN1CCOCC1)CC31CCN(C(C)=O)CC1	9.1	3.0
OC[C@H]1[C@@H](c2ccccc2)[C@@H](CNCC2CCC2)N1CC1CC1	-14.5	-3.8
CNC[C@@H]1Oc2c(NS(=O)(=O)c3ccc(C)cc3)cccc2C(=O)N([C@@H](C)CO)C[C@@H]1C	-3.8	2.0
CCC(=O)N1[C@H](CO)[C@H](c2ccccc2)C12CN(Cc1nccs1)C2	2.1	7.2
CO[C@@H]1CN(C)C(=O)c2ccc(NC(C)=O)cc2OC[C@H](C)N(C(=O)C2CCC2)C[C@H]1C	6.1	2.0
CCCC#Cc1cnc2c(c1)C(=O)N([C@H](C)CO)C[C@@H](C)[C@H](CN(C)S(=O)(=O)c1cn(C)cn1)O2	2.8	-0.8
CO[C@H]1CN(C)C(=O)c2ccc(NC(=O)NC(C)C)cc2OC[C@H](C)N(Cc2ccc(-c3ccccn3)cc2)C[C@H]1C	-11.0	-5.7
COc1cccc(NC(=O)N2CC(=O)N3[C@@H](CO)[C@H](c4ccc(C5=CCCC5)cc4)[C@@H]3C2)c1	-23.3	-12.0
CO[C@@H]1CN(C)C(=O)c2cc(NC(=O)CC(F)(F)F)ccc2OC[C@H](C)N(S(=O)(=O)c2cn(C)cn2)C[C@H]1C	9.2	6.5
COc1cccc(NC(=O)N[C@@H]2C=C[C@H](CC(=O)N3CCCCC3)O[C@H]2CO)c1	2.8	-8.4
C[C@H](CO)N1C[C@H](C)[C@@H](CN(C)S(=O)(=O)c2ccccc2)OCCCC[C@H](C)Oc2ccc(NC(=O)CCCN(C)C)cc2C1=O	9.2	3.1
C[C@@H]1CN([C@H](C)CO)C(=O)c2cc(NS(=O)(=O)c3cn(C)cn3)ccc2O[C@@H](C)CCCCO[C@@H]1CN(C)S(=O)(=O)c1cn(C)cn1	16.7	3.4
Cc1noc(C)c1NC(=O)Nc1ccc2c(c1)C(=O)N([C@H](C)CO)C[C@H](C)[C@@H](CN(C)C(=O)Nc1ccccc1)OCCCC[C@@H](C)O2	26.2	18.9
Cc1cccc(S(=O)(=O)N[C@H]2CC[C@@H](CCn3cc(-c4ccccn4)nn3)O[C@@H]2CO)c1	-15.5	-7.7
CC(C)OC(=O)N(C)C[C@@H]1OCc2ccccc2-c2ccccc2C(=O)N([C@@H](C)CO)C[C@@H]1C	28.8	7.3
C[C@H]1CN([C@@H](C)CO)S(=O)(=O)c2ccc(C3=CCCCC3)cc2O[C@H]1CN(C)Cc1cccnc1	?	/
CCS(=O)(=O)N1CC(=O)N2[C@H](CO)[C@@H](c3ccc(C#Cc4cccc(F)c4)cc3)[C@H]2C1	-5.7	-8.7
C[C@H](CO)N1C[C@H](C)[C@@H](CN(C)C(=O)Nc2ccc(F)cc2)Oc2ncc(C#C[C@@H](C)O)cc2C1=O	6.6	2.5
C[C@@H]1CCCCO[C@H](CN(C)CC2CC2)[C@H](C)CN([C@@H](C)CO)C(=O)c2cc(NC(=O)Nc3ccc4c(c3)OCO4)ccc2O1	-14.3	-26.3
CCCNC(=O)N1[C@@H](C#N)[C@@H](c2ccc(-c3ccc(C(=O)N(C)C)cc3)cc2)[C@@H]1CO	15.6	2.1
CC(C)NC(=O)Nc1ccc2c(c1)C(=O)N([C@@H](C)CO)C[C@H](C)[C@H](CN(C)Cc1ccc(C(F)(F)F)cc1)OCCCC[C@H](C)O2	?	/
C[C@H](O)C#Cc1ccc2c(c1)O[C@@H](CN(C)Cc1ccncc1)[C@@H](C)CN([C@H](C)CO)S2(=O)=O	-2.2	-5.4
O=C(Nc1ccc(F)cc1)N1CC(=O)N2[C@H](CO)[C@H](c3ccc(-c4cccc(F)c4)cc3)[C@H]2C1	?	/
C[C@H](CO)N1C[C@H](C)[C@@H](CN(C)C(=O)c2ccccn2)Oc2ncc(-c3cccc(F)c3)cc2C1=O	1.0	-4.8
COc1ccc2c3c([nH]c2c1)[C@H](CO)N(C(=O)C1CCCCC1)CC31CCN(C)CC1	-1.6	-1.7
COc1cc(CN2CC3(CCN(C(=O)Nc4c(C)noc4C)CC3)c3c([nH]c4cc(OC)ccc34)[C@@H]2CO)cc(OC)c1	7.6	5.0
CCCC(=O)Nc1ccc2c(c1)OC[C@@H](C)N(Cc1ccncc1)C[C@H](C)[C@H](OC)CN(C)C2=O	4.4	5.5
O=C(c1cccnc1)N1CC[C@@H]2[C@H]1c1cc(C#Cc3cccnc3)ccc1N[C@@H]2CO	12.7	1.2
O=C([C@@H]1[C@@H](CO)[C@@H]2Cn3c(cccc3=O)[C@@H]2N1CCC(F)(F)F)N1CCCCC1	14.9	8.4
C[C@@H]1CCCCO[C@@H](CN(C)C)[C@H](C)CN([C@H](C)CO)C(=O)c2cc(NC(=O)Nc3ccc(C(F)(F)F)cc3)ccc2O1	?	/
O=S(=O)(N[C@@H]1CC[C@H](CCn2cc(C3CC3)nn2)O[C@@H]1CO)c1ccc(Cl)cc1	-3.9	1.7
COc1ccc(S(=O)(=O)Nc2ccc3c(c2)C(=O)N([C@H](C)CO)C[C@H](C)[C@H](CN(C)S(=O)(=O)c2cn(C)cn2)O3)cc1	-0.4	-3.6
C[C@H]1CN([C@@H](C)CO)C(=O)c2cccc(NC(=O)c3cnccn3)c2O[C@@H]1CN(C)C(=O)Nc1cccc2ccccc12	22.1	18.1
O=C(c1ccccc1F)N1CC(=O)N2[C@H](C1)[C@@H](c1ccc(-c3cccnc3)cc1)[C@@H]2CO	2.4	2.5
CCNC(=O)C[C@@H]1CC[C@H]2[C@@H](COC[C@@H](O)CN2C(=O)CC)O1	12.0	9.6
CC(=O)n1cc([C@@H]2C=C(C(N)=O)O[C@H](OCCCCO)C2)c2ccccc21	18.4	26.3
C[C@H]1CN([C@@H](C)CO)C(=O)c2cccc(NC(=O)Nc3ccccc3)c2O[C@@H]1CN(C)Cc1ccc(C(F)(F)F)cc1	-29.6	-21.2
CC(C)CC#Cc1ccc2c(c1)O[C@@H](CN(C)C(=O)c1ccccc1)[C@@H](C)CN([C@H](C)CO)S2(=O)=O	?	/
COc1ccc(S(=O)(=O)Nc2ccc3c(c2)C(=O)N([C@@H](C)CO)C[C@H](C)[C@@H](CN(C)CC2CC2)O3)cc1	18.5	7.2
O=C(C[C@H]1CC[C@@H]2[C@H](COC[C@H](O)CN2Cc2cc(F)ccc2F)O1)N[C@@H]1CCN(Cc2ccccc2)C1	-29.2	-21.6
COCC(=O)N1C[C@H](C)[C@H](OC)CN(C)C(=O)c2cc(NC(=O)Nc3ccccc3)ccc2OC[C@H]1C	1.0	-1.7
The list goes on.
SMILES	Vaccinia stage	Vaccinia stage Venus
CO[C@@H]1CC[C@@H]2CCN(C)C(=O)C[C@@H](c3ccccc3)CN(C)C(=O)c3cc(C#N)ccc3OC[C@H]1O2	20.2	13.6
O=C1CN(S(=O)(=O)Cc2ccccc2)C[C@@H]2[C@@H](c3ccc(C#CC4CC4)cc3)[C@@H](CO)N12	?	/
O=S(=O)(Cc1ccccc1)NCC[C@@H]1CC[C@@H](NS(=O)(=O)c2ccccc2)[C@@H](CO)O1	19.9	14.9
O=C(c1ccc(F)cc1)N1CCCCN2[C@H](CO)[C@@H](c3ccc(/C=C/c4ccccc4)cc3)[C@@H]2C1	9.2	-7.5
CO[C@H]1CN(C)C(=O)c2cc(NS(=O)(=O)c3cn(C)cn3)ccc2OC[C@H](C)NC[C@H]1C	3.6	7.8
CO[C@@H](CN(C)S(=O)(=O)c1cccc(Cl)c1)[C@@H](C)CN([C@H](C)CO)S(=O)(=O)c1ccc(Cl)cc1	?	/
C[C@H]1CN([C@@H](C)CO)C(=O)c2cccc(NS(=O)(=O)c3cn(C)cn3)c2O[C@@H]1CN(C)Cc1ccc(C(F)(F)F)cc1	21.4	9.9
Cc1noc(C)c1NC(=O)Nc1cccc2c1O[C@@H](CN(C)C(=O)Nc1ccccc1)[C@@H](C)CN([C@H](C)CO)C2=O	3.3	-2.4
C[C@@H]1CN([C@H](C)CO)C(=O)Cc2cc(NC(=O)NC3CCCCC3)ccc2O[C@@H]1CN(C)S(=O)(=O)c1ccc(Cl)cc1	8.1	8.5
COc1ccc(S(=O)(=O)N(C)C[C@H]2Oc3cc(C#CC4CC4)ccc3S(=O)(=O)N([C@H](C)CO)C[C@@H]2C)cc1	?	/

By substructure, those above with an NH in an aromatic ring
SMILES	Vaccinia stage	Vaccinia stage Venus
COc1ccc2c3c([nH]c2c1)[C@H](CO)N(C(=O)C1CCCCC1)CC31CCN(C)CC1	-1.6	-1.7
COc1cc(CN2CC3(CCN(C(=O)Nc4c(C)noc4C)CC3)c3c([nH]c4cc(OC)ccc34)[C@@H]2CO)cc(OC)c1	7.6	5.0

Compound profiles, as listed above. Order of values: Vaccinia stage | Vaccinia stage Venus
O=C1CN(S(=O)(=O)Cc2ccccc2)C[C@@H]2[C@@H](c3ccc(C#CC4CC4)cc3)[C@@H](CO)N12 as listed: ? | /
CO[C@@H]1CC[C@@H]2CCN(C)C(=O)C[C@@H](c3ccccc3)CN(C)C(=O)c3cc(C#N)ccc3OC[C@H]1O2 as listed: 20.2 | 13.6
CO[C@@H](CN(C)S(=O)(=O)c1cccc(Cl)c1)[C@@H](C)CN([C@H](C)CO)S(=O)(=O)c1ccc(Cl)cc1 as listed: ? | /

Later entries
SMILES	Vaccinia stage	Vaccinia stage Venus
COc1ccc(C#Cc2ccc([C@@H]3[C@H](CO)N4C(=O)CN(C(=O)NC(C)C)C[C@@H]34)cc2)cc1	?	/
CS(=O)(=O)Nc1ccc2c(c1)[C@H]1C[C@H](CC(=O)N3CCOCC3)O[C@@H](CO)[C@H]1O2	16.9	13.1
C[C@@H]1CCCCO[C@H](CN(C)C(=O)C2CCCCC2)[C@H](C)CN([C@@H](C)CO)C(=O)c2cc(NS(=O)(=O)c3ccc(Cl)cc3)ccc2O1	?	/
CCN1[C@@H]2c3ccc(/C=C/c4ccccc4)c(=O)n3C[C@H]1[C@H](CO)[C@H]2C(=O)N1CCOCC1	2.6	13.6
COc1ccc2c3c(n(C)c2c1)[C@@H](CO)N(C(C)=O)CC31CN(C(=O)Nc2ccc(F)cc2)C1	-1.6	-1.9
O=C(c1ccc(F)cc1)N1CCCCN2[C@H](CO)[C@@H](c3ccc(-c4ccccc4)cc3)[C@@H]2C1	?	/
C[C@@H]1CN([C@H](C)CO)C(=O)c2cccc(NC(=O)C3CC3)c2O[C@@H]1CN(C)Cc1ccc(Oc2ccccc2)cc1	8.0	15.6
C[C@@H]1CN([C@@H](C)CO)C(=O)c2cc(C#C[C@@H](C)O)cnc2O[C@H]1CN(C)C(=O)CC1CC1	4.5	-0.5
O=C(O)[C@@H]1[C@@H](CO)[C@@H]2Cn3c(ccc(/C=C/c4ccccc4)c3=O)[C@@H]2N1C(=O)c1cnccn1	15.4	4.0
O=C(Nc1ccc(F)cc1)N1C[C@H]2[C@@H](c3ccccc31)[C@@H](CO)N2C(=O)c1ccccc1	-4.9	11.2
C[C@@H]1CN([C@@H](C)CO)C(=O)c2cc(C#CCc3ccccc3)cnc2O[C@H]1CN(C)C(=O)C1CCC1	14.3	11.4
O=S(=O)(N[C@H]1CC[C@@H](CCn2cc(-c3cccc(F)c3)nn2)O[C@H]1CO)c1ccc(F)cc1	3.3	-3.9
COc1ccc(S(=O)(=O)N2CC[C@@H]3[C@H]2c2cc(C#Cc4cccc(OC)c4)ccc2N[C@@H]3CO)cc1	1.9	5.8
C[C@@H]1CN([C@H](C)CO)C(=O)c2cc(NC(=O)C3CC3)ccc2O[C@@H]1CN(C)C	18.2	4.2
O=S(=O)(c1ccccc1F)N1CC[C@@H]2[C@@H](CO)Nc3ccc(-c4ccccc4F)cc3[C@@H]21	?	/
COc1ccc(NC(=O)N(C)C[C@@H]2Oc3ncc(-c4cccnc4)cc3C(=O)N([C@H](C)CO)C[C@@H]2C)cc1	2.4	10.0
COc1ccc(NC(=O)N(C)C[C@@H]2Oc3ccc(NC(=O)Cn4cnnn4)cc3C(=O)N([C@H](C)CO)C[C@H]2C)cc1	7.0	-1.8
C[C@H](CO)N1C[C@H](C)[C@@H](CN(C)S(=O)(=O)c2ccccc2)Oc2ccc(NC(=O)C3CCCCC3)cc2CC1=O	4.8	5.5
O=S(=O)(N[C@H]1CC[C@H](CCn2cc(C3CC3)nn2)O[C@@H]1CO)c1ccc(Cl)cc1	-12.3	-8.8
O=C(c1ccc(F)cc1)N1CC(=O)N2[C@H](CO)[C@H](c3ccc(C#CC4CCCC4)cc3)[C@H]2C1	?	/
